# From PubChem BioAssay
# CtBP-E1A inh: qHTS Assay for Inhibitors of the CtBP/E1A Interaction; activity change, % (no concentration beside the values); AlphaScreen GST-E1A/His-CtBP binding, 1536-well; active compounds read low; control for the full effect not named in the record; AID 651724, 2012; 0.49% of 340,000 active; in the data active means activity change below about -65%; inconclusive means about -30% to -65%; inactive means above about -30%; also: % is scaled to controls: 0 for no effect and ±100 for the full control effect
#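 In 5 uL wells, 23 nL compound meets equimolar GST-E1A and His-CtBP (5X stock 125 nM each) for 2 h, 37 °C. Beads (5X, 50 ug/mL) then 1 h, 37 °C, dark.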
# Menin MLL FP FL: qHTS Assay for Inhibitors Targeting the Menin-MLL Interaction in MLL Related Leukemias: Competition With Fluorescein Labeled MLL-derived Peptide. Fluorescence polarization, fluorescein-MLL peptide displacement from menin. FP activity change, % at 61.4 µM. 290,000 tested, under 10 active; inconclusive = falling polarisation curve, or a change in total fluorescence; inactive = total fluorescence flat and polarisation flat or rising; no compound was filed as active; the % refers to the polarisation; negative = inhibition;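 also: % of control where 0% means no effect; inhibitors lower the polarisation; unlabelled MLL peptide was the positive control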
# gsp antag: qHTS for Antagonists of gsp, the Etiologic Mutation Responsible for Fibrous Dysplasia/McCune-Albright Syndrome: qHTS | Potency, µM (top dose mostly 76.9 µM), without a hit: at the top dose activity change, negative = inhibition, usual class: inhibitors | gsp-mutant cells, cAMP HTRF, 30 min; control for the full effect not named in the record | 0.4% of 340,000 active; active = falling curve of any shape with a large fitted effect; inconclusive = falling curve, mostly with a smaller effect; inactive = flat or rising curve; cell line not stated here;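 also: intracellular cAMP measured with PDE inhibitor Ro 20-1724 present during compound exposure; potency is read from the fitted curve at half-maximal effect; % is scaled to controls: 0 for no effect and ±100 for the full control effect; nearly all actives have a fitted effect of over 65% in size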
#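 Cells in G418 medium, seeded 16-24 h, 37C; buffer exchange to DPBS + 1 mM CaCl2, 0.5 mM MgCl2, 0.05% BSA; cpds in DMSO + […] (300 uM stock), 30 min 37C; HTRF cAMP detection.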
# ClpP mod: qHTS Assay for Activators of ClpP | ATP-dependent Clp protease proteolytic subunit (Bacillus subtilis (strain 168)), P80244 | purified B. subtilis ClpP, FRET peptide cleavage, 20 min | Potency, µM (highest dose often 57.5 µM), inactives show top-dose activity change, negative = active | 1.9% of 340,000 active | AID 651965, 2013; active = well fitted falling curve with a large enough effect; inconclusive = small, poorly fitted or top-dose-only effect; inactive = no such curve, though single readings can be large or run the other way; also: potency is read from the fitted curve at half-maximal effect; the source files actives as falling curves though it sought activators and does not explain the sign; nearly all actives have a fitted effect of over 65% in size; many hits overshoot -100%
# Target sequence (P80244 whole entry, looked up): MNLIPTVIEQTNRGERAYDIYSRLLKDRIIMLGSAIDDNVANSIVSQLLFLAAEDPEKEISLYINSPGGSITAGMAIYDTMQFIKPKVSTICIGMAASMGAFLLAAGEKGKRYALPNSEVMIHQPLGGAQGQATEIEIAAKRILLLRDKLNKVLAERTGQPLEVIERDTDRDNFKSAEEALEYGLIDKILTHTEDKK
#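 FRET quenching reversal measured ClpP activation: 10 microg/mL B. subtilis ClpP at pH 8 with the FRET-FV decapeptide, read at 430 nm after 320 nm excitation. The 20-min minus 0-min signal was scaled between DMSO/no-enzyme wells and ADEP (5.8 microM final).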
# TRPV1 PAM: HTS Assay for Compounds that Act as Potentiators of the Vanilloid Receptor 1. TRPV1-expressing cells, Fluo-8 calcium influx, capsaicin EC20 potentiation; host cell line not named in the record; control for the full effect not named in the record. potentiation, % at 8.33 µM. 0.02% of 320,000 active. AID 540277, 2011; active means potentiation above 80%; inconclusive means 30% to 80%; inactive means below 30%; also: 0% is about no effect
# Target sequence (Q8NER1 whole entry, looked up): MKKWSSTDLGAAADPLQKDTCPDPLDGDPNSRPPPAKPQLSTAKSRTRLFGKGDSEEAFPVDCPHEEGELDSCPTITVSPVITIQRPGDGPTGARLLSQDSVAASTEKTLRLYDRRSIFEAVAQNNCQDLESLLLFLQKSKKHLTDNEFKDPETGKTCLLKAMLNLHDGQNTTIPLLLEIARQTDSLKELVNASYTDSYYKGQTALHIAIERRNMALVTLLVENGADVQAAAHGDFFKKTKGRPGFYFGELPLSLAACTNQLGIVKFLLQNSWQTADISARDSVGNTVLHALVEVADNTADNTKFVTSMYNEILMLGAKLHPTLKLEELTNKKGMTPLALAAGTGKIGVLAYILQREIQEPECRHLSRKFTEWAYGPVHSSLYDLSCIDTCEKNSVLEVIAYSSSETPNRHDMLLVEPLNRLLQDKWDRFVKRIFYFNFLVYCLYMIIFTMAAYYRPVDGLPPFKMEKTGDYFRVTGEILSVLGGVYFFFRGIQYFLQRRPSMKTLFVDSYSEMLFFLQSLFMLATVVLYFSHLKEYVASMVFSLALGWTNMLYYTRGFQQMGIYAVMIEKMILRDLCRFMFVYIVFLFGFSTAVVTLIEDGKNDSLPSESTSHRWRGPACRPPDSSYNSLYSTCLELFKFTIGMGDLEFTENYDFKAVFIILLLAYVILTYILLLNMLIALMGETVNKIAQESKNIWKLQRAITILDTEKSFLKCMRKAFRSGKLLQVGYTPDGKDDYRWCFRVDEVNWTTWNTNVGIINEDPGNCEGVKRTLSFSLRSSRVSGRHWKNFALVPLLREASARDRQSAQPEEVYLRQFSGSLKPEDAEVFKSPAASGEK
#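 Cells expressing TRPV1 were dye-loaded with Fluo-8 and read kinetically: 10 s baseline, 3 min after compound (agonist portion), then 2 min after EC20 capsaicin (allosteric enhancer portion). Calcium-bound dye fluorescence at 480/520 nm.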
# Sfp PPTase inh: qHTS Assay for Inhibitors of Bacillus subtilis Sfp phosphopantetheinyl transferase (PPTase); AID 1490, 2009; Biochemical Sfp PPTase activity, qHTS; 3.5% of 310,000 active; Potency, µM, without a hit: max response, negative = inhibition, usual class: inhibitors; 4'-phosphopantetheinyl transferase ffp (Bacillus subtilis), Q9F4F7; active = well fitted inhibition curve with a large enough effect; inconclusive = small, poorly fitted or top-dose-only effect, or another doubt; inactive = no such curve, though single readings can be large or run the other way;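 also: the enzyme is Sfp with the accession as filed and its product quenches rhodamine fluorescence; potency is read from the fitted curve at half-maximal effect; 0% = enzyme reaction without inhibitor and -100% = no enzyme wells; top concentration of the series not given in the record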
#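 Reaction rates are the 30-min fluorescence difference (ex 525, em 598 nm) in wells containing 15 nM Sfp, 5 uM rhodamine-CoA and 12.5 uM BHQ-2-YbbR at pH 7.6 with 10 mM MgCl2.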
# gsp agonist: qHTS for Agonist of gsp, the Etiologic Mutation Responsible for Fibrous Dysplasia/McCune-Albright Syndrome: qHTS | 0.13% of 340,000 active | Potency, µM (titrated, usually from 76.9 µM), for inactives: at the highest dose activation (cAMP increase), hits mostly activators | gsp mutant cells, cAMP HTRF, 30 min; control for the full effect not named in the record; active = well fitted activation curve with a large enough effect; inconclusive = small, poorly fitted or top-dose-only effect, or another doubt; inactive = no such curve, though single readings can be large or run the other way; cell line not stated here;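 also: phosphodiesterase inhibitor Ro 20-1724 added with compounds to block cAMP breakdown; potency is read from the fitted curve at half-maximal effect; nearly all actives have a fitted effect of over 60% in size; about a fifth of the inactives were tested at one dose only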
#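 Cells in DMEM/10% FBS with G418 were pretreated with compounds in DMSO plus […] (300 uM stock) for 30 min at 37C. cAMP was measured by HTRF (cAMP-d2 plus anti-cAMP antibody-K) after 30 min at room temperature.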
# The depositor's hits bear a star; ? = inconclusive; nt = no result given; & = joins results of further samples; [ ] = remark or other dose.
SMILES,CtBP-E1A inh,Menin MLL FP FL,gsp antag,ClpP mod,TRPV1 PAM,Sfp PPTase inh,gsp agonist
COc1cccc(NC(=O)CN(C)C(=O)CNC(=O)c2ccccc2F)c1,5,-9.1,8%,nt,-9,6%,-14%
O=C(N/C(=C\c1cccc(Br)c1)C(=O)N1CCOCC1)c1ccco1,3,-1.8,nt,nt,16,10%,15%[15.4 µM]
CC1CN(C2=N/C(=C/c3ccc4c(c3)OCO4)C(=O)N2)CC(C)O1 (stereo not given),4,7.4,-18%,nt,9,8%,0%
CC(C)(C)Cc1nnc(NC(=O)CCc2ccccc2)s1,nt,0.7,10%,-0.2%,8,-8%,-11%
CC(C)(C)c1ccc(C(=O)c2c[nH]c(C(=O)NCc3ccco3)c2)cc1,4,4.8,-14%,-0.7%,23,11%,-34%[inhibitor]
CC1CC(=S)Nc2ccccc2N1Cc1ccccc1 (stereo not given),-24,4.0,-17%,-0.9%,-17,-10%,3%
C/C(CC(=O)NCc1ccccc1)=N\NC(N)=S,3,2.0,10%,nt,19,45µM*,26%[15.4 µM]
COc1ccc(/C=N/NC(=O)Cn2cnc3c2c(=O)n(C)c(=O)n3C)cc1,0,1.9,6%,nt,-2,18%,?
COc1c(C)cc(C(=O)C2CCCN(S(=O)(=O)N(C)C)C2)cc1C (stereo not given),2,3.0,-7%,2.8µM*,-25,2%,11%[15.4 µM]
COc1ccc(CC(=O)NCc2n[nH]c(=S)n2-c2ccc(Br)cc2)cc1,nt,1.1,2%,nt,9,15%,1%[15.4 µM]
COc1ccccc1Cn1c(SCC(N)=O)nc2c(oc3ccccc32)c1=O,3,7.5,-18%,-5.5%,-3,-14%,-20%
CC(C)Cc1ccc(S(=O)(=O)N2CCN(c3ccccn3)CC2)cc1,8,-5.5,9%,nt,7,9%,-8%
COC(=O)c1ccc(NC(=S)NC2CC3CCC2C3)cc1 (stereo not given),2,0.4,-10%,-3.4%,-22,-12%,-35%[inhibitor]
C1=C(c2ccccc2)CCN(c2nc3ccccc3n3cnnc23)C1,-26,-0.8,9%,?,-12,28µM*,?
Cc1cc(C)c(NC(=O)C2CC(=O)N(C3CCCC3)C2)c(C)c1 (stereo not given),0,nt,5%,-2.0%,nt,nt,2%

# One compound at a time, as listed above. Order of values: CtBP-E1A inh | Menin MLL FP FL | gsp antag | ClpP mod | TRPV1 PAM | Sfp PPTase inh | gsp agonist
# CC(C)Cc1ccc(S(=O)(=O)N2CCN(c3ccccn3)CC2)cc1 is listed as 8 | -5.5 | 9% | nt | 7 | 9% | -8%
# CC(C)(C)c1ccc(C(=O)c2c[nH]c(C(=O)NCc3ccco3)c2)cc1 is listed as 4 | 4.8 | -14% | -0.7% | 23 | 11% | -34%[inhibitor]

# Other entries follow.
SMILES,CtBP-E1A inh,Menin MLL FP FL,gsp antag,ClpP mod,TRPV1 PAM,Sfp PPTase inh,gsp agonist
Cc1ccc(NC(=S)NCc2cccs2)c(C)c1,0,3.6,7%,-1.9%,2,2%,17%
CC(CNCC1CCCO1)COc1ccccc1 (stereo not given),9,-4.1,11%,-1.0%,7,6%,14%
Cc1nn(-c2cccc(C(F)(F)F)c2)c(Cl)c1/C=N/n1cnnc1,5,-1.3,-7%,0.0%,-8,13%,18%
CCN(CC)C(=O)[C@H]1C[C@H](CC(=O)NCCCOC)C(=O)N2CCc3c([nH]c4cc(-c5ccco5)ccc34)[C@]12C,-9,nt,-18%,5.1%,nt,nt,nt
O=C(Nc1ccccc1Cl)C1CC(=O)N(c2ccccc2)C1 (stereo not given),1,-3.2,9%,nt,-2,15%,1%[15.4 µM]
Cc1ccc(NC(=O)CSCC(=O)N(C)CC(=O)Nc2c(C)cccc2C)cc1,-6,nt,nt,-4.2%,nt,nt,-82%
Cn1c(=O)[nH]c(=O)c2c1nc(SCC(=O)O)n2CCc1ccccc1,-2,-2.6,4%,-2.5%,9,45µM*,-12%
CCc1ccc(NC(=O)C2CCC(CNC(=O)[C@@H]3Cc4ccccc4CN3)CC2)cc1 (stereo not given in full),nt,-0.3,-8%,2.5%,-14,9%,-18%
Cc1ccccc1Cn1cc(S(=O)(=O)CC(=O)Nc2nccs2)c2ccccc21,6,0.4,-7%,-3.1%,-2,15%,2%
CCCN(C(=O)Cc1coc2cc(C)c(C)cc12)c1c(N)n(Cc2ccccc2)c(=O)[nH]c1=O,-10,nt,0%,-2.3%,4,nt,-8%
CC(C(=O)NCc1ccc(F)cc1)n1ccc2cc(S(=O)(=O)N3CCCC3)ccc21 (stereo not given),-3,-0.3,-9%,-2.8%,-5,7%,-52%[inhibitor]
CC1CCc2sc(-c3n[nH]c(=S)o3)cc2C1 (stereo not given),5,-5.3,?,4.5%,1,-24%,7%
Cc1cc(CN(C)Cc2ccc(OCC(O)CN(C)Cc3ccccc3)cc2)on1 (stereo not given),1,-5.8,9%,nt,6,10%,?
CCN1C(=O)[C@H]2[C@@H](c3ccc(-c4ccc(C(C)=O)cc4)cc3)N3CCCC[C@@]3(C(=O)OC)[C@H]2C1=O,-2,nt,-17%,0.6%,-2,nt,-11%
O=C(NCC(=O)N(c1ccccc1)C(C(=O)NC1CCCCC1)c1cccnc1)c1ccco1 (stereo not given),-7,0.5,7%,-2.1%,1,13%,-9%[15.4 µM]
CCc1ccc(C(=O)OCC(=O)Nc2c(C)n(C)n(-c3ccccc3)c2=O)cc1,-7,nt,nt,-3.4%,nt,nt,-108%[inhibitor]
CCC1CCCCN1C(=O)c1ccc2c(c1)C(=O)N(c1ccc(C)cc1)C2=O (stereo not given),15,nt,-17%,-0.6%,0,-17%,15%[15.4 µM]
O=C1CN(C(=O)COC(=O)CCC(=O)c2ccc3c(c2)OCCO3)c2ccccc2N1,-4,0.2,-5%,-13%,4,4%,17%
O=C(Nc1ccc(N2CCOCC2)c(Cl)c1)c1ccc(F)cc1,-1,3.6,-25%,1.2%,-19,-9%,-4%
C/C(=N\NC(=O)Cn1cc([N+](=O)[O-])cn1)c1ccco1,8,7.9,7%,-0.5%,-3,19%,-41%
O=C(O)C1C2C=CC(C2)C1C(=O)NCc1ccc(Cl)c(Cl)c1 (stereo not given),5,1.3,-3%,-0.6%,-8,0%,-10%
CC(C)[C@H](NC(=O)OCc1ccccc1)C(=O)NCc1ccccc1,4,6.3,2%,-5.3%,-1,12%,?
CC(C)(C)NNC(=S)Nc1cccc(F)c1,5,3.1,0%,nt,nt,-4%,-8%[15.4 µM]
CNC(=O)C1CC(=O)N(c2ccc(OCC(=O)Nc3ccc(F)cc3)cc2)C1 (stereo not given),-9,nt,7%,nt,nt,nt,10%[15.4 µM]
Cc1ccc(S(=O)(=O)c2cnc(-c3ccccc3)nc2Oc2ccccc2)cc1,nt,7.9,nt,nt,20,12%,nt
COc1ccc2c(c1)C(c1ccc(C)o1)=NNC(c1ccccc1)=N2,nt,-3.1,-26%,0.4%,-15,-10%,-33%
CCOc1ccc(NC(=O)N(O)C2(C#N)CCCCC2)cc1,-1,nt,7%,1.1%,nt,nt,-81%[inhibitor]
CCOC(=O)C1CCN(C(=O)C2CCC(=O)N(Cc3cccc(C(F)(F)F)c3)C2)CC1 (stereo not given),3,nt,3%,5.4%,-14,7%,-86%[inhibitor]
Cc1ccccc1Cn1c(CN2CCN(c3ccc(F)cc3)CC2)nc2c1c(=O)n(C)c(=O)n2C,nt,1.7,nt,nt,12,17%,nt
CCOc1ccc(S(=O)(=O)N2CCOCC2)cc1NC(=O)CCN1C(=O)NC2(CCCC2)C1=O,4,nt,nt,2.7%,nt,nt,3%

# Structures above that have a tert-butyl group, in the order listed:
SMILES,CtBP-E1A inh,Menin MLL FP FL,gsp antag,ClpP mod,TRPV1 PAM,Sfp PPTase inh,gsp agonist
CC(C)(C)Cc1nnc(NC(=O)CCc2ccccc2)s1,nt,0.7,10%,-0.2%,8,-8%,-11%
CC(C)(C)c1ccc(C(=O)c2c[nH]c(C(=O)NCc3ccco3)c2)cc1,4,4.8,-14%,-0.7%,23,11%,-34%[inhibitor]
CC(C)(C)NNC(=S)Nc1cccc(F)c1,5,3.1,0%,nt,nt,-4%,-8%[15.4 µM]

# The list continues.
SMILES,CtBP-E1A inh,Menin MLL FP FL,gsp antag,ClpP mod,TRPV1 PAM,Sfp PPTase inh,gsp agonist
O=C1CCC(=O)N1OCCCOc1ccc2c(c1)CCC2,1,4.4,10%[15.4 µM],-4.1%,1,24%,0%
CCN1CCN(S(=O)(=O)c2ccc(C(C)(C)C)cc2)CC1,-4,-0.6,4%,-1.6%,-7,12%,-3%[15.4 µM]
COc1cccc(C(=O)OCC(=O)N2CCC(Cc3ccccc3)CC2)c1OC,2,nt,-17%,-6.7%,nt,nt,-38%[inhibitor]
O=C(Nc1nc2ccccc2[nH]1)c1ccc(F)c(S(=O)(=O)N2CCOCC2)c1,?,7.2,-20%,9.9%,3,4%,0%
COc1cc(C(=O)OCC(=O)Nc2c(F)cccc2F)cc(OC)c1C,nt,1.8,9%,nt,-3,7%,2%[15.4 µM]
NNC(=O)c1ccc([N+](=O)[O-])c(CS(=O)(=O)c2ccc(Cl)cc2)c1,2,-0.5,-5%,2.2%,-27,-6%,-3%
O=S(=O)(NC1CCSc2ccccc21)c1ccccc1 (stereo not given),3,-1.7,1%,nt,-1,14%,3%
CCOc1ccc(S(=O)(=O)Nc2cnc3ccccc3c2)cc1,-1,0.8,-8%,nt,10,18%,-14%
C=C[C@@H]1c2ccccc2N(S(=O)(=O)c2ccc(C)cc2)[C@H](c2ccc(C(F)(F)F)cc2)C1(C#N)C#N,1,nt,-2%,-1.2%&-0.1%,-1,nt,nt
CCCCOc1ccc(-c2[nH]ncc2C=O)cc1,-1,3.1,-11%,nt,-3,-5%,24%[15.4 µM]
Cc1cc(NS(=O)(=O)c2ccc(NS(=O)(=O)c3ccc(CC(C)C)cc3)cc2)nc(C)n1,2,7.0,-1%,nt,13,-3%,34%
